Screening data (PubChem)
Yeast UUG start: alters start codon recognition fidelity in yeast; S. cerevisiae UUG-firefly luciferase reporter, luminescence/redox ratio; actives 0.13% (n = 350,000); activity score, % at 18.7 µM;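 active = replicate mean at a twofold rise or more, about +100% in these data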;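 note: firefly luciferase made from a UUG start codon reports start codon fidelity; reporter light over untreated wells divided by growth signal over untreated wells; some hits fall short of that in this replicate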
MT1-MMP act inh: inhibitors of human MT1-MMP activation; P50281; HT1080 RFP-PRO-GFP cells, GFP/RFP ratio fluorescence, overnight; percent of plate control window, DMSO zero; GFP/RFP ratio change, % at 20 µM; actives 0.061% (n = 360,000); AID 651647;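 active = GFP/RFP ratio change of at least 30% with cell ATP level not reduced by more than half and red fluorescence within 50% of control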; note: strong numbers were not always called active
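Test system: HT1080 RFP-PRO-GFP cells; Benchmarks: DMSO and RFP-L50D-GFP cell wells; Timing: cells overnight before dosing, compound overnight, 37 °C, 5% CO2; Compound: one 20 µM compound dose with 1% DMSO; Read-out: GFP/RFP fluorescence ratio.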
HIV Env fusion: HIV envelope-mediated fusion inhibition. inhibition, % at 12.3 µM. AID 651610. actives 1.1% (n = 360,000). HeLa-JRFL Env/CEM21 cell fusion, luciferase;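 active = mean replicate inhibition score of at least 50 and every replicate individually at or above 50; inconclusive = only one of the two criteria met; inactive = mean below 50 and not all replicates reaching 50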;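 note: 0% = plate neutral controls and 100% = maraviroc near 300 nM; one replicate is shown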
eIF4H FP inh: inhibitors of RNA binding by human eIF4H; Q15056; eIF4H fluorescence polarization binding assay; inhibition, % at 35 µM; actives 0.94% (n = 290,000); AID 2012;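 active = 50% or more with normal probe brightness, or confirmed in later tests; inconclusive = above 50% with abnormal brightness, or retests that disagree; inactive = below 50% or failed in later tests; about a fifth of its hits are not listed in these tables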;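 note: calls also rest on retests at 20 µM and on dose response follow-up; 0% = protein and probe with vehicle and 100% = probe without protein; strong numbers were not always called active; many hits fall short of the cut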
Rce1 inh: blocks yeast Ras-converting enzyme; calls only; yeast membranes, quenched prenylated peptide cleavage fluorescence; actives 0.27% (n = 290,000); Q03530;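 active = fall in fluorescence gain of 50% or more versus controls, with final raw signal at or below 3038400; inconclusive = same 50% fall but final raw signal above 3038400; inactive = fall in fluorescence gain under 50%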;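 note: plate controls were neutral control wells for no effect and wells lacking membranes for full effect; tested at 10 µM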
Target sequence (Q03530 whole entry, looked up): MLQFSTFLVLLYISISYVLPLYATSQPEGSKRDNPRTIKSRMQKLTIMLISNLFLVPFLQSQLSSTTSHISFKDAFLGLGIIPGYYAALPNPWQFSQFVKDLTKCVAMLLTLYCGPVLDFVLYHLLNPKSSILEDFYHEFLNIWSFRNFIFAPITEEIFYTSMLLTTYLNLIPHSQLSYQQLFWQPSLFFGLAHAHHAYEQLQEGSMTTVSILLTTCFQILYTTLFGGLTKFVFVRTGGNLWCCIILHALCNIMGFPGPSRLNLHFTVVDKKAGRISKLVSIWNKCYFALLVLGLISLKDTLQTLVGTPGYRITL
PABP FP inh: blocks human PABP binding to poly(A) RNA. P11940. fluorescence polarization. inhibition, % at 35 µM. actives 1% (n = 290,000);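 active = 50% or more with normal probe brightness, or confirmed in later tests; inconclusive = above 50% with abnormal brightness, or retests that disagree; inactive = below 50% or failed in later tests; about a fifth of its hits are not listed in these tables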;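 note: calls also rest on retests at 20 µM and on dose response follow-up; controls were probe without protein and protein plus probe with vehicle; some compounds called inactive have numbers as strong as hits; many hits fall short of the cut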
CSC inhib: cancer stem cell inhibition; actives 1.1% (n = 300,000); cancer stem cell-like cells viability, luminescence; inhibition, % at 7.5 µM; AID 2717;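 active = mean at 75% or more and at least half the replicates too; inconclusive = mean and replicates disagree; tested in HMLE shEcad cells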;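 note: 0% = median of negative and 100% = median of positive control wells; the first replicate is given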
MT1-MMP act inh RFP: further read-out of MT1-MMP act inh, marked with its call; RFP signal change, %; measured here: RFP expression control read;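 0 = vehicle wells; hits needed this value within 50% of zero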
Numbers without * were called inactive; i = inactive; ? = inconclusive; / = no result given; & = joins results of further samples. Only part of the results is shown; rates above refer to the full screens.

nr	SMILES	Yeast UUG start	MT1-MMP act inh	MT1-MMP act inh RFP	HIV Env fusion	eIF4H FP inh	Rce1 inh	PABP FP inh	CSC inhib
1	Cc1ccc(C(=O)/C=C/N(C)C)cn1	-14	-1	4	6	-16	i	8	-13
2	O=[N+]([O-])c1ccccc1/C=N/Nc1nccnc1Cl	-20	-2	-3	-79	-4	i	-6	-10
3	COc1cc(/C=C/C(=O)OCC(=O)Nc2cc(C)c(C)cc2[N+](=O)[O-])ccc1O	/	11	4	-5	4	i	6	3
4	Cc1ccc(N(CC(=O)NCc2ccccc2)C(=O)CCC(=O)Nc2ccccn2)c(C)c1	-19	1	0	4	-7	/	-2	-15
5	CC1(C)NC(=O)N(Cc2cc(=O)n3ccsc3n2)C1=O	-7	3	4	-2	15	/	6	2
6	CCC(C)Sc1ccc([C@H]2N[C@@](Cc3ccccc3)(C(=O)OC)[C@H]3C(=O)N(CC)C(=O)[C@@H]23)cc1 (stereo partly specified)	1	-1	-10	-10	/	i	/	8
7	CCCN(C)C[C@H]1OCc2cnnn2CCCC(=O)N([C@H](C)CO)C[C@@H]1C	-11&-4	1	3	10	/	/	/	/
8	COc1ccc([C@@H]2CC(=O)[C@@H]3CN(S(=O)(=O)c4ccc(C)cc4)[C@H](c4ccccc4)C[C@@H]3N2S(=O)(=O)c2ccccc2)cc1	-3	-5	-4	-92	/	/	/	/
9	O=C(COc1cccc2ccccc12)NNC(=O)CSCCO	-17	3	2	/	1	i	11	6
10	CSc1sccc1/C=N/NC(=O)c1ccncc1	-8	0	2	-8	0	i	-8	74
11	CN(CC(=O)Nc1ccc(F)cc1)C(=O)C1CCCC1	-19	2	-2	/	/	/	/	-3
12	O=C1Nc2ccccc2/C1=C/C(=O)c1cccs1	-30	-9	-7	/	2	i	6	83*
13	COc1ccc(S(=O)(=O)N2C[C@H]3CON(C)[C@H]3C[C@H]2c2cccc(Br)c2)cc1	-2	0	1	-12	/	/	/	/
14	CCCCCn1c(SCC2CCCO2)nc2cc(C(=O)N3CCC(C(N)=O)CC3)ccc2c1=O (stereo unspecified)	28	-2	-8	-21	-2	/	-11	17
15	COc1ccc2cc(C=NS(=O)(=O)c3ccc(C)cc3)n(C)c2c1	-19	-1	-2	59*	/	/	/	8
16	COc1ccc(C(=O)NCc2nnc(SCC(=O)Nc3ccc4c(c3)OCO4)o2)cc1	/	-2	1	-14	10	i	14	-5
17	N#Cc1nc(COc2cccc(Cl)c2)oc1NCCN1CCOCC1	/	-3	-3	11	-1	i	9	-12
18	CN(C)c1cc(-c2cccc(C(F)(F)F)c2)oc(=O)c1Cl	-18	-5	0	-10	/	i	/	-15
19	O=C1C2C3C=CC(CNS(=O)(=O)c4ccccc4[N+](=O)[O-])(O3)C2C(=O)N1c1ccccc1 (stereo unspecified)	/	4	4	4	-2	i	2	/
20	O=S(=O)(NC1CCCCC1Nc1ccc(Cl)cc1)c1ccccc1 (stereo unspecified)	-10	-4	-14	-4	0	i	30	2
21	N#C/C(=C\c1cccnc1)C(=O)Nc1cccc2ccccc12	/	-3	2	-25	28	i	-3	0
22	CCOc1ccccc1NC(=S)N1CCC(NC(=O)NC23CC4CC(CC(C4)C2)C3)CC1	-19	8	-1	8	3	i	9	-7
23	COc1ccc(-c2csc3ncnc(N4CCN(Cc5ccccc5)CC4)c23)cc1	-9	-7	-12	14	-5	i	-9	17
24	Cn1cnnc1Sc1nc2c(c(=O)n(C)c(=O)n2C)n1Cc1ccccc1Cl	-13	-1	-1	-33	-6	i	2	5
25	NC(=O)c1ccccc1NS(=O)(=O)c1ccc(S(=O)(=O)N2CCCC2)cc1	-14	4	2	4	/	/	/	/
26	NS(=O)(=O)c1ccc(N2N=C(c3ccccc3)CC2c2ccccc2Cl)cc1 (stereo unspecified)	-18	-2	2	14	/	/	/	/
27	CN(C)CCN1CCN(C2CN(Cc3ccc(F)cc3)S(=O)(=O)C2)CC1 (stereo unspecified)	-7	4	8	15	/	/	/	/
28	O=C1c2cccc3cccc(c23)C(=O)N1CC1CCN(S(=O)(=O)c2ccc(F)cc2)CC1	/	0	0	20	-6	i	3	16
29	COc1ccccc1-c1nnc(SC)n1C	/	1	6	-7	4	i	-3	-2
30	Cc1cccn2c(=O)c(C=O)c(N3CCSCC3)nc12	-18	-3	3	4	-5	i	-2	-10
31	Cc1ccc(N2CC(C(=O)Nc3ccccc3C(=O)NC3CCCCC3)CC2=O)cc1 (stereo unspecified)	-18	0	1	0	-8	i	7	-11
32	O=C(c1ccco1)N1CCN(C(c2ccc(Cl)cc2)c2nnnn2CC2CCCO2)CC1 (stereo unspecified)	14	3	0	/	-3	i	21	-8
33	COc1cccc(NC(=O)CN2C(=O)CSc3nc(C)cc(C)c32)c1	-14	2	3	26	-1	i	-7	-3
34	COc1ccc(Nc2nc3cc(C)ccc3cc2C#N)c(OC)c1	/	-14	-6	2	?	i	?	50
35	COc1ccc(C=NNc2ccc([N+](=O)[O-])cc2S(=O)(=O)Nc2ccccc2C(=O)O)cc1OC	-5	2	3	-9	/	/	/	33
36	COc1ccccc1NS(=O)(=O)NC(=O)c1c(C)[nH]c2ccccc12	-8	-3	1	11	/	i	/	-8
37	CC(C)Cc1nnc(NC(=O)c2ccc(S(=O)(=O)N3CCCC3)cc2)s1	-9	-5	-4	11	/	/	/	/
38	COc1ccc(SC[C@H](Cc2ccccc2)N2CC[C@@H](C(C)(C)C)CCC2=O)cc1	-10	-9	-11	16	/	/	/	32
39	Cc1ccc(/C=N/NC(=O)c2cccc(S(=O)(=O)Nc3ccccc3Cl)c2)o1	-21	0	3	-8	-11	i	-10	-5
40	C/[N+]([O-])=C1\Cc2ccccc2C1=O	-22	2	6	/	0	i	0	-9
41	CN(C)c1ccc(C(=O)N=c2sccn2C)cc1[N+](=O)[O-]	-11	4	-1	-84	-12	i	-3	-6
42	CCn1c(C)nc2cc(C(=O)NNS(=O)(=O)c3cc(Br)ccc3Br)ccc21	/	2	4	13	6	i	8	-19
43	NC(=S)Cc1nc(-c2ccccc2)cs1	/	5	11	-10	32	i	0	16
44	COCCNc1c([N+](=O)[O-])c(=O)n(-c2ccccc2)c2ccccc12	/	0	-2	17	-9	i	-4	-4
45	Cc1cc(Cn2nc(-c3ccccc3)cc2C(=O)NCC2CC2)on1	-9	0	4	-7	/	i	/	-33
46	COc1ccc(C(=O)Nc2ccc(Nc3ccccc3)cc2)cc1Br	/	9	-4	-8	/	i	/	24
47	CCOc1ncccc1C(=O)OCc1nnc(-c2ccccc2)o1	4	-4	-4	13	7	/	-8	5
48	Cc1ccc(SCc2nc3ccccc3n2CC(=O)Nc2ccc(Cl)cc2)cc1	/	-8	-13	?	-5	i	-1	-10
49	O=C(Cc1ccccc1)N1CCN(c2ccc([N+](=O)[O-])cc2)CC1	-7	1	-6	-3	-4	i	-13	-2
50	CC1CCCCC12NC(=O)N(CC(=O)Nc1ccc3[nH]c(=O)[nH]c3c1)C2=O (stereo unspecified)	/	3	3	-3	/	i	/	-3
51	CN(C)S(=O)(=O)c1ccc(Cl)c(NC(=O)COC(=O)/C=C/c2ccc(S(=O)(=O)N3CCOCC3)cc2)c1	/	2	0	/	6	i	-4	/
52	CCOc1cc(C=C(C(=O)OC)C(=O)OC)ccc1OCc1ccc([N+](=O)[O-])cc1	/	4	-12	/	-12	/	5	-13
53	O=C(OCc1cc2ccccc2[nH]c1=O)C1CCCCC1	-16	3	4	/	2	i	1	8
54	O=C(O)CC[C@@H](C(=O)O)N1C(=O)c2ccccc2C1=O	-11	2	0	-8	-7	i	2	4
55	O=C(/C=C/c1ccco1)OCC(=O)c1cccc([N+](=O)[O-])c1	-13	1	2	-8	8	i	12	/
56	Cc1ccc(CN2C3CCCC2CC(NC(=O)c2ccc(C)cc2)C3)cc1 (stereo unspecified)	/	5	2	9	5	i	4	31
57	CC(C)(C)NC(=S)NCc1ccco1	/	-10	7	14	29	i	11	9
58	Cc1ccc(NS(=O)(=O)c2cccc(C(=O)NNC(=O)c3cccn3C)c2)c(C)c1	-25	-1	-1	17	2	i	7	/
59	CN(CC(=O)Nc1cccc(F)c1)C(=O)CC1CCCC1	-14	-2	3	1	/	/	/	/
60	C[C@@H]1CN([C@@H](C)CO)C(=O)c2c(c3ccccc3n2C)-c2ccccc2CO[C@H]1CN(C)S(=O)(=O)c1ccc(C(F)(F)F)cc1	0	4	8	?	/	/	/	/

Continued:
nr	SMILES	Yeast UUG start	MT1-MMP act inh	MT1-MMP act inh RFP	HIV Env fusion	eIF4H FP inh	Rce1 inh	PABP FP inh	CSC inhib
61	N#CCCn1nc(-c2ccc(Br)cc2)cc1Nc1ccccc1NC(=O)C(F)(F)F	/	5	-11	2	-6	i	14	4
62	COc1ccc(-c2cc(=O)oc3c(C)c(OC(C)C(=O)Nc4ccc(CN5CCOCC5)cc4)ccc23)cc1 (stereo unspecified)	21	-3	-7	-2	-19	i	-7	-14
63	COc1ccc(NC(=O)CSc2nnc(-c3ccncc3)o2)c(OC)c1	-15	-3	-1	-13	/	i	/	/
64	COc1ccc(/C=N/NC(=O)c2cccc(NC(=O)c3ccccc3Cl)c2)cc1OC	/	-5	1	32	1	i	-14	10
65	CCN(C[C@H]1N[C@@](Cc2ccccc2)(C(=O)OC)[C@H]2C(=O)N(C)C(=O)[C@@H]12)C(=O)C1CCCCC1	2	0	2	-100	/	/	/	/
66	CC1CN(S(=O)(=O)c2ccc(C(=O)Nc3ccc(S(=O)(=O)N4CCOCC4)cc3)cc2)CC(C)O1 (stereo unspecified)	15	-3	-19	-82	46	i	26	4
67	CC1CCN(C(=S)NC(=O)c2cccc([N+](=O)[O-])c2)CC1	-17	4	7	-14	-10	i	-12	6
68	Cc1ccc(CNC(=O)C2CCCN(S(=O)(=O)c3cccc4nonc34)C2)cc1 (stereo unspecified)	-17	-3	0	-4	-15	i	1	-1
69	CCCCN1C[C@H](CO)Oc2cccc(F)c2S1(=O)=O	-16	2	3	-9	/	/	/	/
70	O=C(Cc1cccc(NC(=O)C2CCCN(C(=O)C3CC3)C2)c1)Nc1ccc(C(=O)N2CCOCC2)cc1 (stereo unspecified)	-4	5	10	-6	/	/	/	/
71	CN1C(=O)C(=O)/C(=C(/O)c2ccccc2)C1c1ccc(Br)cc1 (stereo unspecified)	-3	3	2	-2	-11	i	35	2
72	O=C(c1ccco1)N(Cc1ccc([N+](=O)[O-])cc1)c1ccc(Cl)cc1	-13	5	-2	2	-8	i	5	1
